Bioassay records (PubChem BioAssay)
E coli growth – E. coli growth inhibition. AID 1053175. Escherichia coli growth, OD600, 23 h; stronger effect = lower value. OD600 absorbance (test concentration not listed). 0.21% of 330,000 active;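 active = OD600 absorbance below the run mean of sample wells minus 3.6 SD, in any replicate, cut at about 0.56 in these data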;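 note: stock transfer was 300 nL into about 60 µL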
ALR inh – human ALR oxidase inhibition via reduced H2O2. purified ALR, DTT oxidation, H2O2 HRP-luminol luminescence. inhibition, % (test concentration not listed). 3.8% of 290,000 active;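 active = mean and each replicate at 75% or more; inconclusive = only one of the two met; inactive = neither met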;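 note: stock transfer was 7.5 nL into about 7.5 µL; 0% = neutral wells and 100% = wells with inactivated enzyme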
Target sequence (P55789 whole entry, looked up): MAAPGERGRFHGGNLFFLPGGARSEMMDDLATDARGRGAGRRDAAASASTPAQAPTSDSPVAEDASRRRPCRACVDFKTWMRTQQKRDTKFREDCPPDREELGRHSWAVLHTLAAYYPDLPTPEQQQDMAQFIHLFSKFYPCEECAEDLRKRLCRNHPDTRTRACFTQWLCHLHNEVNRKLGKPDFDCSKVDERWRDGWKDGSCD
HNF4A DNA FP – change in binding of human HNF4 alpha to DNA | P41235 | HNF4a-FITC DNA binding, fluorescence polarization, 1 h | activity change, % at 10 µM | 0.3% of 360,000 active; in the data active = activity change above about 30%, passing the limit was not always enough;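 note: controls were the assay level and a saturating level of protein; the project sought stronger binding though the title names inhibitors; some compounds called inactive have numbers as strong as hits; positive values seem to mean higher polarization but the record does not say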
Target sequence (P41235 whole entry, looked up): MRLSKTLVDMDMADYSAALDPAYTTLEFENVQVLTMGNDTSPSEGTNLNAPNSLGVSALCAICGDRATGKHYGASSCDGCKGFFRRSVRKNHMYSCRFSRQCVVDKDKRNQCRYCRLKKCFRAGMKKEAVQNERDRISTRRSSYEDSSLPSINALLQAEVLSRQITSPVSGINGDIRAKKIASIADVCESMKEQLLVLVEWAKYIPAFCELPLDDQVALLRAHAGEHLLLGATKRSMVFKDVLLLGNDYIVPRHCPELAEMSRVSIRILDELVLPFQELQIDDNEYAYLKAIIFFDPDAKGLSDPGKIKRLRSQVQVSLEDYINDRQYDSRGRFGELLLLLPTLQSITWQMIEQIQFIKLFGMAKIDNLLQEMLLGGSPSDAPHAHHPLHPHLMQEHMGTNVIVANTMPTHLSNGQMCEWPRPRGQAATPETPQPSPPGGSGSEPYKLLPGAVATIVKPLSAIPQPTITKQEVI
UCH37 inh – blocks the human deubiquitinase UCH37; purified proteasome/UCH37, Ub-AMC cleavage fluorescence; inhibition, % (test concentration not listed); 0.33% of 330,000 active;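 active = mean of two replicates above 20%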;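 note: 0% = compound-free wells with enzyme and 100% = wells lacking proteasome; stock transfer was 100 nL into about 20 µL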
Target sequence (Q9Y5K5 whole entry, looked up): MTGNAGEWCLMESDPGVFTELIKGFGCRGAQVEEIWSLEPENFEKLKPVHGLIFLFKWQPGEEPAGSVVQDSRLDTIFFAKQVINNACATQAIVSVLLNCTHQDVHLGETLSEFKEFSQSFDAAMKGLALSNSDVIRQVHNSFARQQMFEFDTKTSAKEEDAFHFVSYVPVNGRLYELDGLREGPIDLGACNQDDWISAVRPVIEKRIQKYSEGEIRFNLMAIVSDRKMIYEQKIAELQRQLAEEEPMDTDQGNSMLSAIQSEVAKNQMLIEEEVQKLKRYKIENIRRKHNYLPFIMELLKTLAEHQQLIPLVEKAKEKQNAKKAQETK
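system = Proteasome-associated human UCH37 deubiquitinase | amount = 0.15 nM proteasome as dispensed | medium = pH 7.4 Tris-HCl (50 mM) with ovalbumin, ATP-MgCl2, DTT | incubation = 30 min preincubation with enzyme, 25 min cleavage at room temperature | detection = AMC fluorescence 355/460 nm | read-out basis = percent inhibition | controls = no-proteasome and no-compound wells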
FGF22 binding – FGF22 (human) thermal shift binding; recombinant FGF22 thermal shift, SYPRO orange fluorescence; percent of sucrose octasulfate shift, DMSO zero; calls only at 9.99 µM; 1.5% of 340,000 active; AID 651658;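 active = melting point raised past a set limit in the mean and every replicate; inconclusive = no clear call; three in four hits are not shown here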
LANA-H2B inh – blocks KSHV LANA binding to histone H2A/H2B | Q9QR71 | cell-free LANA-H2A/H2B peptide, fluorescence polarization | inhibition, % (no concentration beside the values) | 0.6% of 320,000 active; in the data active = inhibition mostly above about 10%, no sharp cut-off; inactive = mostly below about 6.7%;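 note: stock transfer was 7.5 nL into about 10 µL; 0% = median of vehicle wells and 100% = median of positive control wells; one replicate is shown; the record names a cut of 25% in any replicate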
B2AR ag – agonists of human beta-2 adrenergic receptor inducing internalization; P07550; Am2.2-beta2AR cells, FAP receptor internalization, flow cytometry; reference of the scale not given here; response, % (no concentration beside the values); 0.43% of 340,000 active; AID 504454;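 active = response above a set limit, near 3 SD of response in nonfluorescent compounds, cut at about 42% in these data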;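 note: stock transfer was 100 nL into about 11 µL; a reference agonist was the positive control; negative values mostly stem from fluorescent compounds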
* hit, by the source's call; i = inactive; ? = inconclusive; . = not tested or not shown. A portion of the library; rates above refer to the full screens.

SMILES	E coli growth	ALR inh	HNF4A DNA FP	UCH37 inh	FGF22 binding	LANA-H2B inh	B2AR ag
CC(C)(C)NC(=O)C(c1ccc(O)cc1)N(Cc1ccco1)C(=O)Cn1nnc(-c2cccs2)n1 (centres undefined)	0.717	-2.3	3.8	3.5	i	0.1	-3.6
CCn1c(O)c(N=NC(=O)CNC(=O)c2ccccc2F)c2ccccc21	0.688	6.3	-1.7	8.5	i	0.8	-3.1
Cc1cc(Nc2ccccc2Br)n2nc(C)nc2n1	0.691	-1.1	0.7	-1.5	i	-0.5	-2.4
O=C(COc1cccc(F)c1)NNC(=O)Cc1ccc(S(=O)(=O)N2CCOCC2)s1	0.698	-4.0	0.7	4.2	i	5.4	-3.2
Cc1nc(C(=O)N(C)C)nn1-c1cc(Cl)cc(Cl)c1	0.736	-1.9	-1.0	0.7	.	-2.3	0.8
CN(C)S(=O)(=O)c1cccc(C(=O)Nc2cc(Cl)cc(Cl)c2)c1	0.677	1.5	0.0	2.4	.	-9.2	7.2
Cc1cccc(OC2CCN(Cc3nc(CC4CC4)no3)CC2)c1	0.669	-10.7	-1.4	1.5	i	-2.7	2.7
CCSc1nnc(-c2cc(Br)ccc2N)c(=O)[nH]1	0.672	0.8	3.0	5.3	i	4.2	-0.2
COc1ccc(C(=O)OCC(=O)NCCCc2ccccc2)cc1OC	0.675	1.1	1.8	0.8	i	-0.7	-1.4
Nc1nccc(/C=C/c2c(Cl)cccc2Cl)n1	0.625	-0.2	0.9	-26.8	i	2.7	6.9
Cc1cc(N/C(=N\S(=O)(=O)c2ccc(F)cc2F)c2ccccc2)no1	.	3.6	1.5	.	.	-7.2	5.7
COCCCNC(NC(=O)c1ccc(Cl)cc1)C(Cl)(Cl)Cl (centres undefined)	0.665	-14.1	0.0	5.3	.	-0.5	3.6

Filtered by structure, the compounds so far containing four or more nitrogen atoms
SMILES	E coli growth	ALR inh	HNF4A DNA FP	UCH37 inh	FGF22 binding	LANA-H2B inh	B2AR ag
CC(C)(C)NC(=O)C(c1ccc(O)cc1)N(Cc1ccco1)C(=O)Cn1nnc(-c2cccs2)n1 (centres undefined)	0.717	-2.3	3.8	3.5	i	0.1	-3.6
CCn1c(O)c(N=NC(=O)CNC(=O)c2ccccc2F)c2ccccc21	0.688	6.3	-1.7	8.5	i	0.8	-3.1
Cc1cc(Nc2ccccc2Br)n2nc(C)nc2n1	0.691	-1.1	0.7	-1.5	i	-0.5	-2.4
Cc1nc(C(=O)N(C)C)nn1-c1cc(Cl)cc(Cl)c1	0.736	-1.9	-1.0	0.7	.	-2.3	0.8
CCSc1nnc(-c2cc(Br)ccc2N)c(=O)[nH]1	0.672	0.8	3.0	5.3	i	4.2	-0.2

(listing goes on)
SMILES	E coli growth	ALR inh	HNF4A DNA FP	UCH37 inh	FGF22 binding	LANA-H2B inh	B2AR ag
CCOc1ccc(OCCC(=O)OCC(=O)N2CCN(S(=O)(=O)c3ccc(C)cc3)CC2)cc1	.	1.1	-0.8	.	i	-5.3	14.1
CCN1CCN(c2ccc(S(=O)(=O)N3CCCCC3)cc2NC(=O)c2cccc(C)c2)CC1	0.687	-1.1	-1.4	0.7	i	2.5	4.1
COc1ccc(CNc2ncc(-c3ccc(Cl)cc3)n2C)c(OC)c1OC	0.643	13.5	2.5	6.6	i	-0.1	8.5
CC(C)c1cccc(OCCCCN(C)C)c1	0.67	2.1	-0.2	-0.5	i	7.8	-7.9
COc1ccc(S(=O)(=O)N2CCCCCC2)cc1NC(=O)Cc1n[nH]c(=O)c2ccccc12	0.695	.	1.2	4.2	.	.	-7.0
O=C(NC(=S)Nc1ccc(O)cc1)c1ccccc1Cl	0.652	.	1.3	2.6	.	-0.8	-2.8
Cc1ccc(N=C2SC(C(=O)O)CC(=O)N2C)cc1C (centres undefined)	0.655	25.3	-0.5	3.1	i	0.9	1.9
CCOC(=O)C1=C(CNCc2ccc(C)cc2)NC(=O)NC1c1ccc(OC)cc1 (centres undefined)	0.741	-1.7	0.0	7.5	.	-2.6	-3.4
Cc1oc(-c2cccs2)nc1CN1CCN(CCC(C)C)C(CCO)C1 (centres undefined)	0.693	-4.3	8.5	-19.9	i	3.7	0.0
CCC(C)Nc1nc2c(c(=O)n(C)c(=O)n2C)n1C (centres undefined)	0.663	.	1.0	2.2	i	-0.7	8.8
O=C(COC(=O)c1cnccn1)NCCc1ccc(Cl)cc1	0.706	.	6.2	-1.1	i	.	2.5
CCn1nc(C)c(CN2CCN(Cc3ccsc3)C(CCO)C2)c1C (centres undefined)	0.69	.	0.6	0.2	.	6.4	-1.8
COc1ccc(C(=O)OCC(=O)c2c(N)n(C)c(=O)n(C)c2=O)c(OC)c1OC	0.686	13.1	-4.5	-1.6	i	4.6	-1.3
O=C1CC(N2CCN(c3ccccc3O)CC2)C(=O)N1Cc1ccccc1 (centres undefined)	0.691	57.1	0.7	5.4	i	0.5	-2.0
Cc1ccc(-c2csc(=S)n2CC(=O)OCC(=O)NCc2ccco2)cc1	0.723	-1.4	0.0	-1.1	.	-3.2	8.5
Cc1nc2ccccc2c2nc(N)nn12	0.727	-1.8	0.2	-3.3	.	6.5	0.5
CC(O)c1cccc(NC(=O)Nc2cccc(NC(=O)Nc3cccc(C(C)O)c3)c2)c1 (centres undefined)	0.708	-10.3	0.9	1.5	i	-2.1	-8.6
CCN1CCN(C2=C(NS(=O)(=O)c3ccc(NC(C)=O)cc3)C(=O)c3ccccc3C2=O)CC1	0.713	-20.3	-0.6	11.5	i	-1.7	-17.7
Cc1cc(C)cc(-n2ncc3c2CCCC3NC(=O)C2(C(N)=O)CC2)c1 (centres undefined)	0.693	-3.6	4.3	4.3	i	3.8	-0.9
CN(Cc1ccccc1)S(=O)(=O)c1ccc(NC(=S)NC(=O)C2CCCCC2)cc1	0.65	.	0.6	-0.9	i	.	-4.2
CC1CCCC(NC(=O)COC(=O)c2sc3ccccc3c2Cl)C1C (centres undefined)	0.688	-1.4	2.1	1.6	i	1.3	-5.3
O=C(CSc1nc(=O)n(CCCN2CCOCC2)c2c1CCCC2)Nc1cccc(F)c1	0.71	?	-1.7	-1.4	.	0.8	3.4
CCN(CC)C(=O)CSc1nc(O)cc(=O)n1CC	0.708	4.1	-4.6	6.7	.	-5.7	2.6
Cc1ccc(-n2nnnc2-c2cccnc2)cc1	0.631	-5.5	4.8	-1.3	i	3.3	4.8
CC(C)OC(=O)CSc1ncnc2c1cnn2Cc1ccccc1	0.748	.	-1.0	5.9	.	-2.2	3.0
CCOC(=O)[C@H]1[C@H]2COc3ccc(OC)cc3[C@@H]2N2C(=O)c3ccc(F)cc3NC(=O)[C@@]12C	.	.	-3.2	-0.1	i	4.1	-0.1
O=C(NC(=S)NNC(=O)c1ccccc1F)c1cccnc1	0.59	47.3	2.3	6.1	i	4.7	-1.4
O=C1CCC(C(=O)OCC(=O)C23CC4CC(CC(C4)C2)C3)N1 (centres undefined)	0.733	-19.3	1.1	-1.3	.	-1.5	-4.9
N#CCc1ccc(NC(=O)c2cc(S(=O)(=O)N3CCOCC3)ccc2Cl)cc1	0.702	0.4	5.1	-0.1	i	-4.4	-6.3
Cc1ccc(-c2nc3ncccc3o2)cc1N	0.678	-21.9	-43.1	-6.0	i	2.5	-11.9
COc1ccccc1C(=O)NNC(=S)NC(=O)c1cc(OC)c(OC)c(OC)c1	0.655	9.2	2.3	5.3	i	2.7	4.0
CC1(C)Cc2c(sc3c2c(=O)n(-c2ccc(Cl)cc2)c(=O)n3CC(N)=O)CO1	0.681	.	2.1	6.1	i	-3.0	1.5
O=C(CN1C(=O)c2ccccc2C1=O)Nc1ccccc1C(F)(F)F	0.696	-6.9	1.2	3.9	i	1.2	-8.0
Clc1ccc(Nc2nc(-c3cccs3)cs2)nc1	0.592	-1.1	0.5	-3.7	i	1.4	1.1
O=C(C1Cc2ccccc2CN1C(=O)c1ccccc1)N1CCN(c2ccccc2)CC1 (centres undefined)	0.727	14.7	-3.4	0.9	i	1.0	-2.2
COc1ccc(/C(O)=C2/C(=O)C(=O)N(c3nc(C)c(C)s3)C2c2ccco2)cc1 (centres undefined)	.	39.7	-1.5	3.5	.	0.8	16.4
COc1ccc(C2NC(=O)CCC2[N+](=O)[O-])c(OC)c1OC (centres undefined)	0.688	-13.6	0.5	3.4	i	8.9	0.9
Cc1csc(=NC(=O)c2ccccc2)n1C	0.636	.	3.2	2.4	.	-5.8	3.4
CCOc1ccc(C(C)=O)cc1CN1C(=O)NC2(CCCCCC2)C1=O	0.586	2.4	4.4	1.0	i	-1.8	-0.4
COCCCNC(=O)CN1C(=O)CSc2ccc(S(=O)(=O)N3CCOCC3)cc21	0.701	1.5	-0.7	0.6	i	-1.1	-2.5
Cc1csc(NC(=O)CSc2sc3c(O)cc(=O)[nH]c3c2C#N)n1	0.706	98.6*	-12.8	6.9	i	-5.4	-3.7
O=C(NCc1ccccc1)C(=O)NCC(c1ccco1)N1CCOCC1 (centres undefined)	0.668	-3.6	-0.7	6.5	.	-6.0	2.1
O=C(CC1C(=O)NCCN1CC1CCCCC1)NCc1ccc(Cl)cc1 (centres undefined)	0.706	-1.3	-1.6	-1.2	i	-2.0	-2.0
CCN1C(=NCC2CC2)N[C@@H](c2cccc(C(F)(F)F)c2)C(C(=O)OC)=C1C	0.816	-2.2	-1.4	3.2	.	-0.2	19.0
CCS(=O)(=O)N1CCCC(C(=O)NCc2cccc(OC)c2)C1 (centres undefined)	0.685	-3.8	-2.0	-0.9	.	8.1	3.9
CCOc1ccccc1NC(=O)COC(=O)C1CC(=O)N(c2c(C)cccc2C)C1 (centres undefined)	0.705	-0.4	-2.5	2.9	i	-1.6	10.1
CCOC(=O)/C(C#N)=C1/C=CN(Cc2ccccc2)C=N1	0.71	1.2	-1.2	12.4	.	-2.2	1.2
O=C(CNC(=O)c1ccco1)Nc1ccncc1	0.71	32.4	-1.6	-0.1	i	-1.6	-2.0
O=C(O)/C=C/c1cn(-c2ccccc2)nc1-c1cc2ccccc2o1	0.697	2.6	-0.7	-193.4	i	2.4	6.3
CC(=O)Nc1ccc(NC(=O)C2CCCN2C(=O)NC2CCCCC2)cc1 (centres undefined)	0.7	-2.8	0.5	0.9	i	0.8	1.9
Cc1cccc(NC(=S)N(CCN(C)C)C(C)c2ccccn2)c1 (centres undefined)	0.682	5.4	-4.1	0.4	.	-1.5	9.1
Cn1cc(CC(=O)NCCCN2CCCC2)c2ccccc21	0.71	-3.5	3.8	2.5	.	-1.7	3.9
O=C(c1ccc(N2CCOCC2)c([N+](=O)[O-])c1)N1CCN(c2ccccc2)CC1	.	.	-0.7	.	i	.	7.5
CN(C)c1ccc(CNn2cnnc2)cc1	0.663	34.6	4.7	0.6	.	2.4	0.6
O=C(Nc1ccc(O)cc1)C1CCCN1S(=O)(=O)c1ccc(F)cc1 (centres undefined)	0.725	98.2*	-1.0	3.8	i	1.7	1.6
COC(=O)C(Cc1ccc(O)cc1)NC(=O)CCNC(=O)c1ccco1 (centres undefined)	0.705	7.1	0.2	2.9	i	-0.3	-0.4
N#C/C(=C\c1ccccc1)C(=O)Nc1cc(S(=O)(=O)N2CCOCC2)ccc1N1CCCC1	0.705	-10.9	3.0	1.4	.	-0.4	-5.1
CCn1c(NC(=O)c2cccs2)c(-c2cccs2)c(=O)c2ccccc21	0.675	2.8	-0.9	6.6	.	0.7	-4.1
Cc1ccc(NC(=O)CNC(=O)c2sc3ccccc3c2Cl)nc1	0.75	-6.2	0.5	0.7	.	4.2	4.0
CCNC(=S)NNC(=O)CCn1c2ccccc2c2ccccc21	0.752	-11.3	6.3	-0.1	.	0.3	-15.6
CCN1C(=O)[C@H]2[C@@H](c3ccc(-c4ccc(OC)cc4)cc3)N[C@@](CC(C)C)(C(=O)OC)[C@H]2C1=O	.	3.1	-1.4	0.4	i	6.9	-2.5

An excerpt of these results, with two lines to a compound:
Results follow in this order: E coli growth, ALR inh, HNF4A DNA FP, UCH37 inh, FGF22 binding, LANA-H2B inh, B2AR ag
> O=C(c1ccc(N2CCOCC2)c([N+](=O)[O-])c1)N1CCN(c2ccccc2)CC1
    ., ., -0.7, ., i, ., 7.5
> CN(C)c1ccc(CNn2cnnc2)cc1
    0.663, 34.6, 4.7, 0.6, ., 2.4, 0.6
